High-throughput results from PubChem BioAssay.
miR-21 FLuc = qHTS Assay for Modulators of miRNAs and/orActivators of miR-21. 340,000 tested, under 10 active. AID 2288, 2010. Potency, µM (series often up to 38.3 µM), inactives show top-dose reporter change, positive = more light. HeLa miR-21 FLuc reporter, luciferase, 48 h; active = well fitted rising curve with a large enough effect; inconclusive = small, poorly fitted or top-dose-only effect; inactive = no such curve, though single readings can be large or run the other way;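 note: % of control where 0% means no effect; miR-21 action dims this reporter so a rising signal means less miR-21 action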
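HeLa cells endogenously expressing miR-21, stably carrying CMV-driven firefly luciferase with a downstream miR-21 binding site, 2000 cells/well. Titrations up to approximately 40 uM, 48 hours; luciferase luminescence read.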
Rango complex inh = qHTS Assay for Inhibitors of Rango (Ran-regulated importin-beta cargo) - Importin beta complex formation | hit rate 0.031% among 340,000 | Rango CFP/YFP FRET sensor + importin beta, 45 min | Importin subunit beta-1 (Homo sapiens), Q14974 | Potency, µM (top dose mostly 92.2 µM), for inactives: at the top dose inhibition of complex formation; active = rising FRET ratio curve, often small or poorly fitted; inconclusive = mostly compound fluorescence or quenching in the first reads; inactive = flat curves in all reads;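 note: potency is the fitted concentration of half-maximal effect; 0% = DMSO wells and 100% = buffer wells lacking importin beta; nearly all actives have a fitted effect of over 15% in size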
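FRET biosensor Rango (snurportin 1 IBB between N-terminal EYFP and C-terminal Cerulean), 50 nM in PBS/1 mM DTT/0.02% Tween-20/0.1% BSA, preincubated 5 min RT with compound; 0.125 microM importin beta added, 45 min RT, CFP/YFP FRET ratio read.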
GLA inh pH 4.5 = qHTS Assay for Inhibitors of Human alpha-Galactosidase at pH 4.5 | Alpha-galactosidase A (Homo sapiens), P06280 | purified enzyme, 4-MU-alpha-Gal fluorescence, pH 4.5 | activity change, negative = inhibition, % at 105 µM | 230,000 tested, under 10 active | AID 1467, 2008; inconclusive = small, poorly fitted or top-dose-only inhibition, or a rising curve; inactive = flat fitted curve, though single readings scatter; no compound was filed as active;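 note: 0% = full activity with enzyme and -100% = basal without enzyme; dose as in the result columns while the protocol names 77 µM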
Target sequence (P06280 whole entry, looked up): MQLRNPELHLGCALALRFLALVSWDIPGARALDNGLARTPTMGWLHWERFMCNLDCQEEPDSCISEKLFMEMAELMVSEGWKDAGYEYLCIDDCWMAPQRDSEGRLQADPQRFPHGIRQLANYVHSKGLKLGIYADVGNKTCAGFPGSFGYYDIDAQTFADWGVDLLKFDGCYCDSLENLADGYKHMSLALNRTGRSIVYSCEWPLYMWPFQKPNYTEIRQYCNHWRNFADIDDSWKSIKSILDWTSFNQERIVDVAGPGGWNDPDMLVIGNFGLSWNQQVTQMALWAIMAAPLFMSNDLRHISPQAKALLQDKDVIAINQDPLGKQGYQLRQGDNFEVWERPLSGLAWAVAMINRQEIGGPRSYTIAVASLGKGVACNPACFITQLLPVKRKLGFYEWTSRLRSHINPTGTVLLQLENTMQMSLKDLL
Rango dissoc inh = qHTS Assay for Inhibitors of RanGTP induced Rango (Ran-regulated importin-beta cargo) - Importin beta complex dissociation; Biochemical FRET Rango-importin beta, RanGTP-induced dissociation; hit rate 0.071% among 340,000; Snurportin-1 (Homo sapiens) + GTP-binding nuclear protein Ran (Homo sapiens) + Importin …; AID 540253, 2011; Potency, µM (highest dose often 46.1 µM), for the others: at the top dose activity change, negative = inhibition; active means falling FRET ratio curve, often poorly fitted, with flat reads before Ran was added; inconclusive means other falling curves, or compound fluorescence or quenching; inactive means flat or rising ratio curve;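 note: potency is the fitted concentration of half-maximal effect; % of control where 0% means no effect; nearly all actives have a fitted effect of over 45% in size; -100% = wells without RanGTP and RCC1; the record marks most hits as doubtful in a second field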
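Recombinant Rango FRET biosensor (EYFP–snurportin 1 IBB–cerulean CFP10) at 0.1 uM premixed with 0.25 uM importin beta in PBS, 1 mM DTT, 0.02% Tween-20, 0.1% BSA. Compound added 5 min; RanGTP-RCC1 (0.6 uM Ran, 2 mM GTP, 0.2 uM RCC1) then triggers release, read at 45 min.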
Active calls of the source: *; u = inconclusive; x = no result given; & = joins results of further samples; [ ] = remark or other dose. This is a subset, so the mix of outcomes need not match the whole.

Sequence of screens – miR-21 FLuc	Rango complex inh	GLA inh pH 4.5	Rango dissoc inh
1) CCN(C(=O)CSc1nc2ccccc2c(=O)n1-c1cccc(C)c1)C1CCS(=O)(=O)C1 (centres undefined)
→ 0%	0.2%	-7[21.1 µM]	3%
2) COCCCNC(=S)N1CCN(c2nc3ccccc3s2)CC1
→ -21%	-1.4%	4	-17%
3) CC(C)(C)OC(=O)[C@H](Cc1ccccc1)NC(=O)c1nc[nH]c1C(=O)NCCCCCN
→ x	-0.9%	x	-14%
4) CCOc1cccc2cc(C(N)=O)c(=N)oc12
→ -2%	-2.2%	-4	-6%
5) Cc1cc(C(=O)NNS(=O)(=O)c2ccc(F)cc2)nn1C(C)(C)C
→ -8%	-0.1%	0	7%
6) Cc1cc(C)nc(NC(=O)Cc2ccc(Cl)cc2)c1
→ -4%	4.8%	x	1%
7) Cc1cc(O)ccc1C1(c2ccc(O)cc2C)OC(=O)c2ccccc21
→ -8%	-0.6%	-8	5%
8) CC(=O)c1ccc(NC(=O)CSc2nnc(-c3ccncc3)n2C2CC2)cc1
→ x	0.8%	x	-13%
9) Cc1ccc(S(=O)(=O)NCC(C)NC(=O)CN2CCOCC2)cc1 (centres undefined)
→ 0%	-0.9%	x	-3%
10) C=CC[N+]1(CC#Cc2ccccc2)CCCC1
→ -1%	-2.3%	-3	-17%
11) CC(=O)Nc1cccc(NC(=O)C(C)N2c3cccc4cccc(c34)S2(=O)=O)c1 (centres undefined)
→ 1%	-1.7%	x	-8%
12) O=C(NC1CCN(Cc2ccccc2)CC1)c1cc(Br)c(Br)[nH]1
→ -2%	-0.3%	2	-2%
13) COc1ccc(N2CCN(C(=O)C3CCCO3)CC2)cc1 (centres undefined)
→ -9%	1.1%	6	-8%
14) O=C(CSc1nnc(-c2cccnc2)s1)Nc1ccccc1
→ 5%	0.3%	x	1%
15) O=C(NC1CCCC1)C(c1ccsc1)N(Cc1ccco1)C(=O)Cc1cccs1 (centres undefined)
→ 1%	-1.5%	1	-1%
16) Cc1ccccc1Nc1nc(N)nc(CSc2nnc3ccccn23)n1
→ -48%	3.1%	-7	-10%
17) CCCn1c(SCC(=O)NCC)nc2sc3c(c2c1=O)CCC3
→ 0%	3.5%	x	26%
18) CCOc1cccc2sc(NN)nc12
→ 2%	u	3	-5%
19) O=C(c1ncn(Cc2ccccc2)c1C(=O)N1CCc2ccccc2C1)N1CCc2ccccc2C1
→ x	2.3%	x	-13%
20) O=C(NNC(=O)c1csc(-c2cccnc2)n1)Nc1ccc(Cl)cc1
→ -4%	-2.5%	-1	-3%
21) CC(C)N1CCC(N2CCN(Cc3cccc4nonc34)CC2CCO)CC1 (centres undefined)
→ 4%	-5.2%	-2	14%
22) COc1ccccc1C(=O)NNC(=O)CCN1C(=O)/C(=C\c2ccccc2)SC1=S
→ 1%	11%	x	3%
23) O=[N+]([O-])c1ccc(S(=O)(=O)CC2CSc3nc4ccccc4n32)cc1 (centres undefined)
→ -2%	-3.0%	5	-19%
24) CC1(C)CC2(CCO1)OC(=O)CC2C(=O)NCCc1ccccc1 (centres undefined)
→ 0%	7.5%	-5	12%
25) Cc1nc2ccc(N)cc2s1
→ -5%	3.9%	1	-19%
26) CCCc1cc(=O)[nH]c(SCC(=O)NC)n1
→ -3%	5.1%	4	7%
27) O=C(CSc1nc2ccccc2c(=O)n1CC1CCCO1)Nc1ccc(F)cc1 (centres undefined)
→ 6%	2.3%	x	10%
28) CN(C)c1ccc(-c2nnn(CC(=O)Nc3ccc4c(c3)OCCO4)n2)cc1
→ -9%	0.8%	-7	19%
29) CCOC(=O)c1c(SCC(=O)Nc2nccs2)nc(C)c(C)c1C
→ -55%	u	x	u
30) COc1cc(C(=O)NCCCNC(=O)c2cc(OC)c(OC)c(OC)c2)cc(OC)c1OC
→ x	0.3%	x	-13%
31) Cn1c(SCCN2CCCCC2)nnc1-c1ccccc1Br
→ -14%	-0.3%	2	19%
32) O=C(c1ccccc1)c1ccc(C(=O)N2CCN(c3ccc(F)cc3)CC2)o1
→ 1%	2.8%	-7	25%
33) COc1ccc(CNc2ccc([N+](=O)[O-])cn2)cc1
→ -49%	-3.7%	x	3%
34) O=C(Nc1ncc(C(F)(F)F)cc1Cl)C1COc2ccccc2O1 (centres undefined)
→ -10%	-2.0%	-4	-13%
35) CCOC(=O)CN1C(=N)N(c2nc(NC(C)C)nc(OC)n2)CC1=O
→ 9%	-2.9%	-4	0%
36) CCN(CC)S(=O)(=O)c1ccc(N2CCOCC2)c(NC(=O)COc2ccc(C#N)cc2)c1
→ -4%	0.6%	-3	2%
37) COC(=O)C1=CN(c2ccc(Cl)cc2)C=C(C(=O)OC)C1c1ccc([N+](=O)[O-])cc1
→ -1%	u	x	-3%
38) CCN(CC)S(=O)(=O)c1cccc(C(=O)NN2Cc3ccccc3C2=N)c1
→ -3%	4.3%	-5	-1%
39) Cc1ccc2c(c1)/C(=N/O)CCS2
→ 0%	-0.7%	-2	16%
40) C[C@H](CO)N1C[C@H](C)[C@@H](CN(C)C(=O)Nc2ccc3c(c2)OCO3)Oc2c(NC(=O)C3CC3)cccc2C1=O
→ x	2.9%	x	7%
41) COc1ccc(N(CC(=O)Nc2cc(OC)ccc2OC)S(=O)(=O)c2c(C)nn(C)c2C)cc1
→ -16%	-0.9%	-5	11%
42) Cc1cc(Sc2nc(N(C)C)nc(N(C)C)n2)nc(Cl)n1
→ 0%	1.4%	9	21%
43) COc1ccc(CCn2c(=N)c(C(=O)NCC3CCCO3)cc3c(=O)n4ccccc4nc32)cc1 (centres undefined)
→ 13%	0.3%	x	-3%
44) CC(C)Oc1cccc(C(=O)C2CCCN(C(=O)c3ccoc3)C2)c1 (centres undefined)
→ -31%	-2.2%	-7	-14%
45) COc1cc(/C=C2\CC(C(C)(C)C)C/C(=C\c3cc(OC)c(OC)c(OC)c3)C2=O)cc(OC)c1OC (centres undefined)
→ -4%	0.0%	x	2%
46) COc1cc(/C=C2\SC(N3CCC(C)CC3)=NC2=O)ccc1O
→ -1%	u	x	u
47) N[C@@H](Cc1c[nH]c2ccccc12)C(=O)O
→ -3%	x	0&3	x
48) CCCCN(CCCC)Cc1ccc(N)cc1
→ -5%	-1.5%	1	-4%
49) O=C(NCC1CCCO1)c1ccc(COc2ccccc2)o1 (centres undefined)
→ x	-1.5%	x	-8%
50) Clc1ccc2nc(C3CCN(Cc4ccccc4)CC3)[nH]c2c1
→ 7%	-3.8%	-10	14%
51) NC(N)=Nc1nc(-c2ccccc2)c2cc(F)ccc2n1
→ 19%	0.0%	-1	-1%
52) COc1ccc(CNC(=O)c2ccc3c(=O)n(CCCN4CCCC4=O)c(=S)[nH]c3c2)cc1
→ 8%	0.5%	7	-21%
53) CC(=O)N1CCc2c(sc(NC(=O)Cc3ccccc3)c2C(N)=O)C1
→ -1%	-4.5%	x	-3%
54) O=C(Cn1cc(C(F)(F)F)ccc1=O)NCCc1ccc(Cl)cc1Cl
→ 3%	-3.4%	2	12%
55) COc1ccc(NC2=NCCCCC2)cc1
→ 0%	1.1%	x	-2%
56) O=C(/C=C/c1ccco1)N1CCN(C/C=C/c2ccccc2)CC1
→ 3%	-1.5%	-3	10%
57) CCN(CC)S(=O)(=O)c1cccc(N=NC2=C(O)CCCC2=O)c1
→ -9%	-0.8%	-9	-1%
58) O=C(CSc1nccn1Cc1ccco1)Nc1ccccc1
→ -24%	1.2%	x	7%
59) O=C(CSCc1cccc(Br)c1)N=Nc1c(O)[nH]c2ccccc12
→ -13%	1.1%	-4	6%
60) O=C(CCN1CCOCC1)N1CCc2c([nH]c3ccccc23)C1c1cccc(Cl)c1 (centres undefined)
→ 1%	0.4%	2	15%

More records.
Sequence of screens – miR-21 FLuc	Rango complex inh	GLA inh pH 4.5	Rango dissoc inh
61) COc1ccc(/C=C/C(=O)C2CC2)cc1Cn1nc(C)c([N+](=O)[O-])c1C
→ -15%	-2.0%	7	-9%
62) Cc1oc(-c2ccc(Cl)cc2)nc1CN1CCCN(C(=O)c2ccco2)CC1
→ 12%	-1.2%	x	4%
63) CC(=O)Nc1ccc(C(=O)NNC(=O)c2ccccc2-n2cccc2)cc1
→ x	0.3%	x	-1%
64) Cc1ccc(Cn2ccc(NC(=O)c3nn(C)cc3[N+](=O)[O-])n2)cc1
→ -23%	-4.7%	1	-3%
65) Cn1c(CNC(=O)c2cccs2)nnc1SCC(=O)Nc1ccccc1
→ -4%	-1.1%	4	-10%
66) COc1cc(/C=N/NC(=O)C(N)=O)ccc1OCC(=O)N1C(C)CCCC1C (centres undefined)
→ -4%	1.0%	0	-3%
67) Cc1ccc(Nc2nc(N)nc(CSc3nccn3C)n2)cc1
→ -24%	-0.1%	-1	11%
68) O=C(/C=C/c1ccc(Cl)c([N+](=O)[O-])c1)Nc1cccnc1
→ -28%	-0.2%	-2	-8%
69) CCc1nn(CC(=O)N2CCN(C)CC2)c(=O)c2cccn12
→ -2%	0.2%	x	11%
70) CC1CN(CCOc2ccccc2[N+](=O)[O-])CC(C)O1 (centres undefined)
→ -7%	-0.9%	2	34%
71) N#CC1=C(N)N=C(SCc2cccc3ccccc23)C(C(N)=O)C12CCCCC2 (centres undefined)
→ 16%	0.0%	-3	0%
72) CCCc1nnc(NC(=O)C2CCCO2)s1 (centres undefined)
→ -35%	4.6%	6	-7%
73) Cc1ccc(/C=N/N=C2/NC(=O)C(CC(=O)N3CCOCC3)S2)cc1 (centres undefined)
→ -1%	2.2%	3	-3%
74) COc1ccc(OCc2nnc(SC(C)C(=O)Nc3nccs3)n2-c2ccccc2)cc1 (centres undefined)
→ 5%	-1.0%	0	2%
75) COc1cc(OC)c(OC)cc1/C=N/Nc1ccc(Cl)nn1
→ -3%	1.8%	x	-12%
76) Cc1ccc(-c2csc3ncnc(Nc4ccc(N5CCOCC5)cc4)c23)cc1
→ -18%	0.2%	-15	-2%
77) COc1ccccc1Nc1nc(C)cs1
→ -18%&-21%	-0.9%&-5.4%	0&-11	3%&-10%
78) Cc1ccccc1OCC(=O)Nc1nnc(COc2ccccc2)s1
→ x	-3.9%	x	11%
79) CCCNC(=O)c1ccc(COc2ccc(Cl)cc2)o1
→ -10%	2.7%	x	-14%
80) O=C(CN1C(=O)NC(c2ccccc2)(c2ccccc2)C1=O)NCc1ccc(F)cc1
→ x	-0.6%	x	-14%
81) COc1cccc(C(=O)NC(=S)Nc2nnn(C)n2)c1
→ -16%	-1.7%	9	-12%
82) COc1cc(/C=N/NC(N)=O)cc(Br)c1OCc1ccc(C)cc1
→ -8%	0.4%	3	2%
83) COc1ccc(Cc2cnc(N)s2)cc1
→ -2%	-1.1%	-1	0%
84) Cc1ccc(/C=N/NC(=O)Cc2ccc(O)cc2)s1
→ -31%	u	x	-17%
85) CSc1nc(Cc2ccc(Cl)cc2)nc2ccccc12
→ -5%	2.5%	-12	25%
86) COc1ccc(CNC(=O)CCCn2nc(C)n3c(cc4sccc43)c2=O)cc1
→ -5%&-5%	-0.4%	x	0%
87) Cc1ccc(OCCNC(=O)/C=C/c2ccc([N+](=O)[O-])cc2)cc1C
→ -4%	0.8%	-10	4%
88) Clc1c(CSc2nc3ccccc3o2)nc2sccn12
→ -77%	2.9%	-2	37%
89) CN(C)c1ccc(/C=C(/NC(=O)c2ccccc2)C(=O)NCCN2CCOCC2)cc1
→ -1%	-3.9%	x	12%
90) CC(=O)Nc1sc2c(c1C#N)CCCCC2
→ -43%	-7.1%	0	0%
